High-throughput results as filed in PubChem.
Vaccinia mCherry = inhibitors of vaccinia virus infection (mCherry reporter signal) | AID 720579 | Potency, µM (top dose mostly 36.5 µM), for the others: at the top dose activity change, negative = inhibition, hits mostly inhibitors | Vaccinia virus mCherry reporter infection, fluorescence; about a quarter of the inactives have no number | 310,000 compounds, 0.63% hits; active = well fitted inhibition curve with a large enough effect; inconclusive = small, poorly fitted or top-dose-only effect; inactive = no such curve, though single readings can be large or run the other way; tested in A549 cells; further: nearly all actives have a fitted effect of over 35% in size; inactives centre near -10
Vaccinia Venus = inhibitors of vaccinia virus (Venus reporter); Vaccinia virus Venus reporter expression, fluorescence; Potency, µM (top dose mostly 36.5 µM), without a hit: at the top dose activity change, negative = inhibition, usual class: inhibitors; 330,000 compounds, 0.46% hits; AID 720580; active means well fitted inhibition curve with a large enough effect; inconclusive means small, poorly fitted or top-dose-only effect; inactive means no such curve, though single readings can be large or run the other way; tested in A549 cells; further: nearly all actives have a fitted effect of over 30% in size; inactives centre near -10
* hit, by the source's call; i = inactive; ? = inconclusive; . = not tested or not shown; [ ] = remark or other dose. On the % scale 0 is the no-effect control and ±100 the full control effect; potency means the concentration at half of the fitted maximal effect.

Preview:
1	CCOC(=O)CCCCCC(=O)Nc1ccc2c(c1)C(=O)N([C@H](C)CO)C[C@H](C)[C@@H](CN(C)S(C)(=O)=O)OCCCC[C@@H](C)O2
2	CCS(=O)(=O)c1ccc2oc(SCC(=O)NCCc3ccc(F)cc3)nc2c1
3	COc1ccccc1N1CCN(CC(C)N(C(=O)C2CCCCC2)c2ccccn2)CC1 (stereo unspecified)
4	CCC(C)N1C(=O)CCC1C(=O)NCCc1ccc(Cl)cc1 (stereo unspecified)
5	CCCS(=O)(=O)N1CC(=O)N(c2ccc(Cl)cc2)C(C)(C(=O)NC2CCCC2)C1 (stereo unspecified)
6	CSCCC1NC(=O)N(CC(=O)Nc2c(Cl)cc(Cl)cc2Cl)C1=O (stereo unspecified)
7	COc1ccc(N2CCN(C(=O)c3ccc(NC(=O)c4nsc5ccccc45)cc3)CC2)cc1
8	COc1ccc(C2=C(C)CC(C)(C)NC2=O)cc1OC
screen / no. | 1 | 2 | 3 | 4 | 5 | 6 | 7 | 8
Vaccinia mCherry | -5% | -17% | -18% | -7% | -10% | -21% | 0% | .
Vaccinia Venus | -13% | -12% | -12% | -16% | -4% | -12% | -17% | ?

9	Cc1ccccc1OCc1n[nH]c(=S)n1-c1ccccc1
10	N#CC1=C(SCC(=O)c2cc3ccccc3oc2=O)NC(=O)C(C#N)C12CCCC2 (stereo unspecified)
11	Cc1nnc(SCC(=O)c2cc(C)n(-c3c(C)n(C)n(-c4ccccc4)c3=O)c2C)s1
12	COc1ccc(OC(C)c2nnc(N)s2)cc1 (stereo unspecified)
13	CCC1CCCCN1CC(=O)c1c(C)[nH]c2cc(C)ccc12 (stereo unspecified)
14	O=C(Cn1c(NCCO)nc2ccccc21)c1ccc(Cl)cc1Cl
screen / no. | 9 | 10 | 11 | 12 | 13 | 14
Vaccinia mCherry | i | . | -8% | i | -17% | i
Vaccinia Venus | 3% | -18% | -4% | 5% | -6% | -24%

This part in full, from the start:
1	CCOC(=O)CCCCCC(=O)Nc1ccc2c(c1)C(=O)N([C@H](C)CO)C[C@H](C)[C@@H](CN(C)S(C)(=O)=O)OCCCC[C@@H](C)O2
2	CCS(=O)(=O)c1ccc2oc(SCC(=O)NCCc3ccc(F)cc3)nc2c1
3	COc1ccccc1N1CCN(CC(C)N(C(=O)C2CCCCC2)c2ccccn2)CC1 (stereo unspecified)
4	CCC(C)N1C(=O)CCC1C(=O)NCCc1ccc(Cl)cc1 (stereo unspecified)
5	CCCS(=O)(=O)N1CC(=O)N(c2ccc(Cl)cc2)C(C)(C(=O)NC2CCCC2)C1 (stereo unspecified)
6	CSCCC1NC(=O)N(CC(=O)Nc2c(Cl)cc(Cl)cc2Cl)C1=O (stereo unspecified)
screen / no. | 1 | 2 | 3 | 4 | 5 | 6
Vaccinia mCherry | -5% | -17% | -18% | -7% | -10% | -21%
Vaccinia Venus | -13% | -12% | -12% | -16% | -4% | -12%

7	COc1ccc(N2CCN(C(=O)c3ccc(NC(=O)c4nsc5ccccc45)cc3)CC2)cc1
8	COc1ccc(C2=C(C)CC(C)(C)NC2=O)cc1OC
9	Cc1ccccc1OCc1n[nH]c(=S)n1-c1ccccc1
10	N#CC1=C(SCC(=O)c2cc3ccccc3oc2=O)NC(=O)C(C#N)C12CCCC2 (stereo unspecified)
11	Cc1nnc(SCC(=O)c2cc(C)n(-c3c(C)n(C)n(-c4ccccc4)c3=O)c2C)s1
12	COc1ccc(OC(C)c2nnc(N)s2)cc1 (stereo unspecified)
screen / no. | 7 | 8 | 9 | 10 | 11 | 12
Vaccinia mCherry | 0% | . | i | . | -8% | i
Vaccinia Venus | -17% | ? | 3% | -18% | -4% | 5%

13	CCC1CCCCN1CC(=O)c1c(C)[nH]c2cc(C)ccc12 (stereo unspecified)
14	O=C(Cn1c(NCCO)nc2ccccc21)c1ccc(Cl)cc1Cl
15	O=C(NCc1ccc(Cl)cc1)C1CCN(C(=O)c2cnn(-c3ccccc3)c2-n2cccc2)CC1
16	O=C(NC1CCS(=O)(=O)C1)c1c(NC(=O)C2COc3ccccc3O2)sc2c1CCCC2 (stereo unspecified)
17	CCNC(=O)c1cc2c(c(-c3cccc(-c4ccccc4F)c3)n1)[C@@H](CCO)N(C(=O)CC1CC1)C2
18	Cc1nc2c(OCc3ccc(OC(F)F)cc3)cccn2c1N(C)C(=O)CCC1CCCC1
screen / no. | 13 | 14 | 15 | 16 | 17 | 18
Vaccinia mCherry | -17% | i | ? | . | -22% | -3%
Vaccinia Venus | -6% | -24% | -27% | -11% | -23% | -15%

19	Fc1ccc(C(c2nnnn2C2CCCC2)N(Cc2ccco2)CC2CCCO2)cc1 (stereo unspecified)
20	COCCn1c(C)cc(C(=O)COC(=O)c2ccc(NC(=O)CC#N)cc2)c1C
21	Cc1cc(NC(=O)OC(C)C)ccc1-c1ccc(NC(=O)OC(C)C)cc1C
22	CC(=O)c1ccc(N2CCN(C(=O)NCc3noc4ccc(C)cc34)CC2)cc1
23	Cn1c(N)nc2nc[nH]c2c1=S
24	C[C@@H]1CN([C@H](C)CO)C(=O)CCCn2nncc2CO[C@@H]1CN(C)C(=O)Oc1ccccc1
screen / no. | 19 | 20 | 21 | 22 | 23 | 24
Vaccinia mCherry | -11% | . | i | -9% | -10% | i
Vaccinia Venus | -21% | -14% | -8% | -9% | 1% | -18%

25	Nc1cccc2c1Cc1cc([N+](=O)[O-])ccc1-2
26	CCN(CC)C(=O)CC(c1ccc(N(C)C)cc1)c1c(O)cc(OC)cc1OC (stereo unspecified)
27	Cc1cccc(C(=O)N2CCN(CCNC(=O)C(=O)Nc3ccc(F)cc3)CC2)c1
28	COc1cc(C)ccc1S(=O)(=O)N1CCN(C23CC4CC(CC(C4)C2)C3)CC1
29	O=C(Nc1ccccc1Cl)[C@H](CSCc1ccccc1)N1Cc2ccccc2C1=O
30	COc1cccc(NC(=O)CCS(=O)(=O)c2cccs2)c1
screen / no. | 25 | 26 | 27 | 28 | 29 | 30
Vaccinia mCherry | -8% | i | -8% | -25% | -8% | .
Vaccinia Venus | 10% | -1% | -13% | -13% | 11% | -13%

31	Cc1ccc(C)c(S(=O)(=O)Nc2ccccc2C(=O)Nc2ccc(S(=O)(=O)Nc3ncccn3)cc2)c1
32	CCC(NC(=O)/C(=C\c1ccc2c(c1)OCO2)NC(C)=O)C(=O)O (stereo unspecified)
33	CCOc1ccc(OCC)c(Nc2cc(C)nc3nc(-c4ccco4)nn23)c1
34	Cc1ccc(N2CC(C(=O)N3CCC(C(=O)Nc4ccc(Br)cc4)CC3)CC2=O)cc1 (stereo unspecified)
35	COCCCn1c(=N)c(C(=O)NC2CCCC2)cc2c(=O)n3cc(C)ccc3nc21
36	Cc1ccc(C(O)(C(=O)NNS(=O)(=O)c2ccc(C)cc2)c2ccc(C)cc2)cc1
screen / no. | 31 | 32 | 33 | 34 | 35 | 36
Vaccinia mCherry | -15% | -6% | 4% | -5% | 0% | -6%
Vaccinia Venus | -1% | -7% | 5% | -5% | -2% | ?

37	Cc1ccccc1N1CC(C(=O)Nc2ccc3c(c2)OCO3)CC1=O (stereo unspecified)
38	Cc1ccc(C)c(S(=O)(=O)N/N=C/c2cccnc2)c1
39	O=C(Nc1ccc(F)cc1)Nc1ccc(Cl)cn1
40	CCc1ccc(CNC(=O)CCCN2C(=O)CCn3nc(-c4cccn4C)cc32)cc1
41	CCn1cc(C(=O)NCCOC)c(=O)c2ccc(C)nc21
42	COc1cccc(OC)c1C(=O)NC(=S)Nc1ccc2c(c1)C(=O)N(C)C2=O
screen / no. | 37 | 38 | 39 | 40 | 41 | 42
Vaccinia mCherry | ? | -14% | -29% | -5% | -14% | ?
Vaccinia Venus | 0% | -5% | ? | 9% | -14% | -30%

43	CCCc1nc2ccc(C)cn2c1Cc1ccc(C)cc1
44	COc1cccc(-c2c(-c3cc(OC)cc(OC)c3)n(C)c3ccc(-c4ccc5[nH]ccc5c4)cc23)c1
45	COc1cccc(C2CC(=O)N3CN(c4cccc(Cl)c4C)CSC3=C2C#N)c1OC (stereo unspecified)
46	Nc1nnnn1/N=C/c1cc(Cl)cc(Cl)c1O
47	Cc1cc(C(=O)NC2CCC(O)CC2)c(C)o1 (stereo unspecified)
48	COc1ccccc1OCC(=O)N1CCN(Cc2ccc3c(c2)OCO3)CC1
screen / no. | 43 | 44 | 45 | 46 | 47 | 48
Vaccinia mCherry | -6% | -21% | 42%[activator] | i | -12% | i
Vaccinia Venus | -21% | -12% | 1% | -4% | -6% | 14%

49	CCOC(=O)C1=NNC(C(=O)OCC)C1C(=O)OCC (stereo unspecified)
50	COc1ccccc1NC(=O)c1ccc(NS(=O)(=O)c2ccc(F)c(F)c2F)cc1
51	Cc1noc2ncnc(Sc3ccccc3Cl)c12
52	O=C(Cn1cc(C(F)(F)F)ccc1=O)Nc1ccc2c(c1)OCCO2
53	C=CCC1NS(=O)(=O)OC2CCCCC12 (stereo unspecified)
54	Cc1oc2c(CN3CCOCC3)c(O)ccc2c(=O)c1-c1ccccc1
screen / no. | 49 | 50 | 51 | 52 | 53 | 54
Vaccinia mCherry | i | -24% | ? | 2% | i | 3%
Vaccinia Venus | -1% | -18% | -23% | -11% | -13% | 4%

55	Cc1ccc(CCNC(=O)c2cc3sccc3n2Cc2ccc(F)cc2)cc1
56	CC1(C)CC(=O)c2sc(NC(=O)C3COc4ccccc4O3)nc2C1 (stereo unspecified)
57	Cc1cc(C)cc(NC(=O)C2CCCN(c3nc(C)cc(C)n3)C2)c1 (stereo unspecified)
58	COc1ccc(C(C)=O)cc1Cn1c(C)c(C(=O)NC2CC2)sc1=O
59	CCn1cc(C(=O)N2CCN(c3cc(Cl)ccc3C)CC2)c(=O)c2cc(S(=O)(=O)N3CCOCC3)ccc21
60	CCOc1ccccc1CN1CCN(Cc2ccc(C)o2)C(CCO)C1 (stereo unspecified)
screen / no. | 55 | 56 | 57 | 58 | 59 | 60
Vaccinia mCherry | -12% | i | i | 20% | -17% | i
Vaccinia Venus | 0% | -2% | -2% | 4% | -29% | 7%

61	Cc1ccc(NC(=S)NC(=O)c2ccc(Br)o2)c(C)c1
62	CC(C)CCN1CCN(Cc2coc3ccccc3c2=O)CC1CCO (stereo unspecified)
63	CCN(CC)C(=O)C(=O)N/N=C/c1ccc(F)cc1
64	OCC1OC(n2cnc3ncccc32)C(O)C1O (stereo unspecified)
65	COC(=O)C1=C(N)Oc2cc(C)[nH]c(=O)c2C1c1ccc(Cl)cc1 (stereo unspecified)
66	NS(=O)(=O)c1ccc(CCNC(=O)c2ccncc2)cc1
screen / no. | 61 | 62 | 63 | 64 | 65 | 66
Vaccinia mCherry | i | -12% | -1% | 7% | -8% | i
Vaccinia Venus | -13% | -13% | -2% | 5% | -3% | 0%

67	COc1cc(CN2CCNC(=O)C2CC(=O)NC2CCCCC2)cc(OC)c1 (stereo unspecified)
68	COc1ccc(NS(=O)(=O)c2c(C)cc(C)cc2C)cn1
69	COc1ccc(N2CCN(C(=O)c3ccccc3NS(=O)(=O)c3ccc(C)cc3)CC2)cc1
70	Cc1cccc(NC(=O)C(=O)NCCc2csc(-c3ccc(C(F)(F)F)cc3)n2)c1C
71	CC(C)(C)NC(=O)c1cccc(NC(=O)Cc2cccs2)c1
72	CC(=O)Oc1c(C)c(OC(C)=O)c2c(c1C(C)=O)OC1CC(=O)C(C(C)=O)=C(O)C21C (stereo unspecified)
screen / no. | 67 | 68 | 69 | 70 | 71 | 72
Vaccinia mCherry | i | i | -8% | -17% | 1% | i
Vaccinia Venus | -11% | -10% | -22% | -18% | -6% | ?

73	COC(=O)c1c(NC(=O)C2CC(=O)NN2Cc2ccccc2)sc(C)c1C (stereo unspecified)
74	CC(=O)Nc1ccc(S(=O)(=O)N(C)CC(=O)N/N=C/c2ccncc2)cc1
75	NC(=O)NCCc1ccccc1
76	O=C(CCc1ccc(Oc2cc([N+](=O)[O-])cc([N+](=O)[O-])c2)cc1)N1CCCCCC1
77	Cc1cc(-c2ccccc2)nc(N(C)NC(=O)C2CC2)c1S(C)(=O)=O
78	O=C(NC(=S)Nc1cc(S(=O)(=O)N2CCOCC2)ccc1N1CCOCC1)c1ccco1
screen / no. | 73 | 74 | 75 | 76 | 77 | 78
Vaccinia mCherry | . | i | -25% | i | -14% | -22%
Vaccinia Venus | -18% | 0% | -10% | -23% | -13% | -11%

79	CCOc1ccc(CN(C)CC(=O)Nc2ccc(N3CCOCC3)cc2)cc1OC
80	CC(C)(C)OC(=O)[C@H](Cc1ccccc1)NC(=O)c1[nH]cnc1C(=O)Nc1cccc(Cl)c1
81	C=CC[C@@H](CC(=O)N[C@@H](CO)Cc1ccccc1)C(=O)N[C@@H](C)COC(=O)[C@@H](CC=C)Cc1ccc(F)cc1
82	Cc1ccc2nc(-c3ccc(NC(=O)COC(=O)c4ccc(=O)[nH]c4)cc3)sc2c1
83	CCn1c(C(=O)N2CCCC(C(=O)NCCCc3ccccc3)C2)cc2sccc21 (stereo unspecified)
84	COc1ccc(NC(=O)c2coc3ccccc23)cc1OC
85	Cc1occc1C(=O)NCc1ccco1
86	O=C(C[n+]1cc(-c2ccc(F)cc2)n2c1CCC2)N1c2ccccc2Sc2ccccc21
87	C=C(C)Cn1c(=O)c2c(nc3n2CCN3c2ccc(CC)cc2)n(C)c1=O
screen / no. | 79 | 80 | 81 | 82 | 83 | 84 | 85 | 86 | 87
Vaccinia mCherry | -5% | -28% | -5% | -26% | ? | -20% | -13% | -14% | -24%
Vaccinia Venus | -7% | ? | -13% | -8% | -27% | -11% | -7% | -2% | -18%
